PfG6PD inh: PfG6PD (Plasmodium falciparum) enzyme inhibition. 350,000 tested, 0.78% active. AID 504690. PfGluPho enzyme, NADPH resazurin-diaphorase fluorescence. inhibition, % at 20 µM;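 active = inhibition reaching at least a set limit at 20 µM in the primary screen, cut at about 59% in these data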;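 note: 0% = DMSO wells with substrate and 100% = DMSO wells lacking glucose-6-phosphate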
NLRP3 yeast inh: NALP3 inhibition in yeast. Yeast reconstituted NLRP3/ASC/caspase-1, beta-gal luminescence, 24 h. inhibition, % at 10 µM. 330,000 tested, 0.39% active. AID 2825;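 active = inhibition of 50% or more; inactive = inhibition below 50%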;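 note: plate controls were induced DMSO wells for no effect and uninduced yeast grown without galactose for full effect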
SENP1 FRET inh: inhibitors of human SENP1 SUMO protease catalytic domain; Q9P0U3; recombinant SENP1 catalytic domain, CyPet-SUMO1-YPet FRET cleavage; inhibition, % at 10 µM; 360,000 tested, 0.21% active;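 active = inhibition at least 30% at 10 µM, raw YFP signal under a set limit, fluorescence ratio 0.5 to 1.5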;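 note: 0% = enzyme with DMSO and 100% = no enzyme wells; some results filed as inactive read as strong as hits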
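Assay system: hSENP1 catalytic domain, recombinant. Amount: SENP1 enzyme, 20 pM final. Schedule: 50 min reaction, RT, dark. Technique: FRET, CFP and YFP emission. Control set: no-enzyme wells low, DMSO-plus-enzyme wells high control.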
HKDC1 inh: inhibitors of human hexokinase HKDC1; Q2TB90; recombinant HKDC1, G6PDH/diaphorase resazurin coupled fluorescence; inhibition, % at 20 µM; 340,000 tested, 0.16% active; AID 493160;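 active = inhibition above about 35% when tested at 20 µM, limit read from the data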;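 note: plate controls were DMSO wells with enzyme for no effect and DMSO wells lacking enzyme for full effect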
Target sequence (Q2TB90 whole entry, looked up): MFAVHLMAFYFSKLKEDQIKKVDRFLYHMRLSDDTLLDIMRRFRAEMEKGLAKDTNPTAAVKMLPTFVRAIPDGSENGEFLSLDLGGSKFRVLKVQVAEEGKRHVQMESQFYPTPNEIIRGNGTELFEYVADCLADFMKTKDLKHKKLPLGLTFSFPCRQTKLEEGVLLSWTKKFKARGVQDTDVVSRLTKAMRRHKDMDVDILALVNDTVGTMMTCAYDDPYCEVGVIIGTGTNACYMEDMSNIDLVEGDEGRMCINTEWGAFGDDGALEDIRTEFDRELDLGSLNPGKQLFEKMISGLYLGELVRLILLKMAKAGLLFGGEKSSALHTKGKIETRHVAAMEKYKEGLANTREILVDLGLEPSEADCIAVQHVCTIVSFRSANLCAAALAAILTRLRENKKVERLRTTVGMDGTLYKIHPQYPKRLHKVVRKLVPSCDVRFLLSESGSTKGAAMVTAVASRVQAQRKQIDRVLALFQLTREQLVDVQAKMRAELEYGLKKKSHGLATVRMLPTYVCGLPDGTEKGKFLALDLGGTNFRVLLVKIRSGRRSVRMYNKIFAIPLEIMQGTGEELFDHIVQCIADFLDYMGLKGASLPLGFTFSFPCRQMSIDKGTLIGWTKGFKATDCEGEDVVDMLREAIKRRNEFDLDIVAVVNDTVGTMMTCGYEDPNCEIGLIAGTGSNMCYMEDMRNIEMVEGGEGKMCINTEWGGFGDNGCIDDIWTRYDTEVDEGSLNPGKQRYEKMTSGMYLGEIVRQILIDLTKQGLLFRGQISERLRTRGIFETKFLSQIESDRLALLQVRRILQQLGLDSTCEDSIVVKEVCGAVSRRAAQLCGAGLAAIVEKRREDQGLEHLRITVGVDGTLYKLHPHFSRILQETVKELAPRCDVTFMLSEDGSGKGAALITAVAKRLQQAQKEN
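Assay system: in-house recombinant HK5 (HKDC1) enzyme. Input: HKDC1 at 5 µg/mL. Medium: Tris pH 8.0 buffer with MgCl2, Tween-20, BSA, BME. Dosing: single 20 µM dose. Schedule: 90 min reaction incubation at room temperature, dark. Signal: resazurin-to-resorufin fluorescence via G6PDH and diaphorase coupling, 525/613 nm. Controls: DMSO-enzyme wells negative, buffer-substituted wells positive.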
Apaf-1 inh: blocks human Apaf-1 apoptosome activity. 330,000 tested, 0.71% active. inhibition, % at 20 µM. AID 489030. reconstituted apoptosome caspase-3 activity, DEVD-Rh110 fluorescence; active = inhibition of at least 40% at 20 µM;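 note: plate controls were DMSO wells for no effect and DEVD-CHO caspase inhibitor wells for full effect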
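Assay system – apoptosome proteins · Medium – Hepes buffer, pH 7.5 · Also added – cytochrome c with DEVD-Rh110 · Timing – 30 min compound preincubation, 50 min activation, room temperature · Detection – Rh110 fluorescence, excitation 480 nm, emission 540 nm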
* marks the source's active call; other numbers are inactive results. Not all compounds are listed; the hit share may differ from the screen's.

Start of the data: the first 7 records (preview)
Sequence of screens – PfG6PD inh | NLRP3 yeast inh | SENP1 FRET inh | HKDC1 inh | Apaf-1 inh
CCOc1ccc(-c2cccc(NS(=O)(=O)c3cc([N+](=O)[O-])ccc3Cl)c2)nn1
  -8 | 23 | 1 | -1 | 5
O=C(Nc1ccc(Br)cc1)c1cccc(S(=O)(=O)Nc2ccccn2)c1
  -13 | -5 | 2 | -1 | 9
Cc1c(C(=O)Nc2ccccc2[N+](=O)[O-])csc1-c1ccccc1
  -3 | 29 | 4 | 7 | 10
O=C(Nc1ccccn1)Nc1ccccc1[N+](=O)[O-]
  -9 | 49 | 1 | -3 | 4
COc1ccc(CCNC(=O)c2cccn2C)cc1
  -9 | 12 | 1 | 0 | -2
Cc1nc2cc(-c3ccccc3)nn2c(N)c1-c1ccccc1
  20 | 20 | 1 | -4 | 7
Fc1ccc(-c2cn3ccccc3n2)cc1
  -3 | 29 | 0 | -1 | 11

The list itself, previewed entries included:
Sequence of screens – PfG6PD inh | NLRP3 yeast inh | SENP1 FRET inh | HKDC1 inh | Apaf-1 inh
CCOc1ccc(-c2cccc(NS(=O)(=O)c3cc([N+](=O)[O-])ccc3Cl)c2)nn1
  -8 | 23 | 1 | -1 | 5
O=C(Nc1ccc(Br)cc1)c1cccc(S(=O)(=O)Nc2ccccn2)c1
  -13 | -5 | 2 | -1 | 9
Cc1c(C(=O)Nc2ccccc2[N+](=O)[O-])csc1-c1ccccc1
  -3 | 29 | 4 | 7 | 10
O=C(Nc1ccccn1)Nc1ccccc1[N+](=O)[O-]
  -9 | 49 | 1 | -3 | 4
COc1ccc(CCNC(=O)c2cccn2C)cc1
  -9 | 12 | 1 | 0 | -2
Cc1nc2cc(-c3ccccc3)nn2c(N)c1-c1ccccc1
  20 | 20 | 1 | -4 | 7
Fc1ccc(-c2cn3ccccc3n2)cc1
  -3 | 29 | 0 | -1 | 11
COCCn1c(C)cc(C(=O)COC(=O)c2ccccc2Br)c1C
  12 | 11 | 1 | -4 | 3
COc1ccc(NC(=O)c2ccc(Br)o2)c([N+](=O)[O-])c1
  -19 | 25 | 4 | -5 | -7
N#Cc1ccccc1N/C=C/C(=O)c1ccc(Cl)cc1
  23 | 40 | -7 | 0 | 6
CC(=O)Oc1ccc(C)cc1-n1nc2ccccc2n1
  -12 | 1 | -2 | 1 | 10
O=C(COC(=O)c1ccccc1)c1ccc2c(c1)OCCO2
  5 | 26 | 0 | -4 | 10
O=C(Nc1nc2cc3c(cc2s1)OCO3)C1=COCCO1
  4 | 32 | 3 | -3 | 11
Cn1c(SCC(=O)NCc2ccc3c(c2)OCO3)ncc(C(=O)Nc2ccc(F)cc2)c1=O
  -5 | 14 | 0 | -2 | 7
CCc1ccccc1NC(=O)Nc1ccc(F)cc1
  3 | 13 | 3 | -8 | -7
Cc1nc(-c2ccc(C(=O)Nc3cccc(F)c3)cc2)cs1
  8 | 26 | -2 | -3 | -15
O=[N+]([O-])c1cccc(-c2nc(-c3ccccn3)no2)c1
  2 | 18 | -4 | 0 | -17
C=CCNC(=O)c1ccc(CSc2nc3ccccc3s2)cc1
  -2 | 35 | 0 | 3 | 2
COC(=O)c1sccc1NC(=O)Nc1ccc(C)c(C)c1
  44 | 22 | 1 | 1 | 18
Cc1ccsc1C(=O)OCC(=O)c1cc(C)n(C)c1C
  3 | 24 | 0 | -5 | -7
O=C(Nc1cccnc1)c1ccc(CSc2ccccc2)cc1
  9 | 32 | 1 | -7 | -1
O=C(C#Cc1ccccc1)Nc1ccccc1F
  11 | 11 | 0 | -1 | -6
Nc1ncnc2c1ncn2C1OC(COP(=O)(O)O)C(O)C1O (centres undefined)
  8 | 21 | 0 | -2 | -5
COc1ccc(-c2cc3ccccc3oc2=O)cc1
  14 | 48 | -1 | -3 | -14
Fc1ccc2cnc(-c3ccccc3)cc2c1
  27 | 34 | -2 | 2 | 16
CCn1c(C)cc(C(=O)COC(=O)c2ccccc2[N+](=O)[O-])c1C
  7 | 34 | 1 | -6 | 1
O=c1c(Cl)c(N2CCCCC2)cnn1-c1nc2ccccc2[nH]1
  10 | 13 | 0 | 7 | 2
Cn1c(SCC(=O)c2ccc(F)cc2)ncc(C(=O)Nc2ccccc2)c1=O
  1 | 12 | -6 | -5 | 1
Cc1nc2c(-c3ccc(F)cc3)cnn2c(N)c1-c1ccccc1
  37 | 4 | 2 | 1 | 26
O=C(Nc1ccccc1F)Nc1ccccc1F
  -8 | 30 | 2 | -14 | 3

Other records follow:
Sequence of screens – PfG6PD inh | NLRP3 yeast inh | SENP1 FRET inh | HKDC1 inh | Apaf-1 inh
COc1ccc(C)cc1NC(=O)Nc1ccncc1
  -15 | 16 | 0 | 0 | 9
Cc1cc(C)n2nc(-c3ccccc3)cc2n1
  4 | 32 | 2 | -5 | 10
Cc1ccc(CNC(=O)CSc2ncc(C(=O)Nc3ccccc3)c(=O)n2C)cc1
  6 | 14 | 1 | 1 | -9
N/C(=N\N=C\c1ccc([N+](=O)[O-])cc1)c1nonc1N
  -3 | -9 | 3 | -4 | -32
COc1ccc(C(=O)Nc2cccc(C(C)=O)c2)cc1OC
  8 | -1 | -74 | -7 | -13
CCCNC(=O)c1ccc(-c2nc3ccccc3s2)s1
  -7 | 58* | -27 | 0 | 11
Cc1nc2c(-c3ccccc3)cnn2c(N)c1-c1ccccc1
  22 | 10 | 2 | 4 | 22
Cn1c(SCC(=O)NCC2CCCO2)ncc(C(=O)Nc2ccc(F)cc2)c1=O (centres undefined)
  6 | 4 | 3 | -10 | 0
O=[N+]([O-])c1ccc(-c2cn3ccccc3n2)cc1
  42 | 21 | -3 | 4 | -12
COc1ccc(/C=C/C(=O)OCC(=O)c2ccccc2F)cc1
  13 | 28 | -1 | -4 | 5
O=C(COc1ccc(Cl)cc1Cl)Nc1ccccc1F
  8 | 37 | -1 | -2 | -2
O=C(COc1ccc2c(c1)OCO2)Nc1ccccc1F
  -7 | 28 | 1 | -13 | -18
COc1ccc(-c2cn3ccccc3n2)cc1
  30 | 32 | 3 | -2 | -5
O=C(Nc1ccccc1O)c1ccc2c(c1)C(=O)N(c1ccccc1)C2=O
  -2 | 6 | -1 | -6 | -11
CC(C)(C)NC(=O)COC(=O)c1ccccc1Nc1ccc(SC(F)F)cc1
  -4 | 27 | -1 | 7 | 17
CCOc1ccc(NC(=O)Nc2cc(C)ccc2OC)cc1
  11 | 36 | 2 | -2 | 6
CCC(=O)Nc1ccc2nc(C3CC3)n(Cc3ccccc3)c(=O)c2c1
  1 | 10 | -1 | 5 | -3
COC(=O)c1sccc1NC(=O)Nc1ccc(OC)cc1
  30 | 21 | 2 | 2 | -2
Fc1ccc(-c2nnc(-c3ccc(Cl)cc3)o2)cc1
  -3 | 15 | 5 | -9 | 7
COc1cccc(NC(=O)c2ccc3c(c2)C(=O)N(CC2CCCO2)C3=O)c1 (centres undefined)
  -2 | 16 | 1 | -7 | 15
CSc1ccccc1-c1nc(-c2ccncc2)no1
  17 | -2 | 0 | -3 | 10
O=C(Nc1ccc([N+](=O)[O-])cn1)c1ccc(Br)o1
  -4 | 14 | -2 | 11 | -2
Cc1cc(C(=O)OCC(=O)c2ccc3c(c2)OCCO3)c(C)o1
  11 | 27 | 1 | -1 | -1
COc1ccc(-c2cc3cc4c(cc3cn2)OCO4)cc1
  22 | 23 | 0 | -3 | 1
COC(=O)c1sccc1NC(=O)Nc1cc(C)cc(C)c1
  26 | 14 | 0 | 0 | 2
COc1ccc(C(=O)Nc2ccc(Nc3ccccc3)cc2)cc1OC
  4 | -5 | 1 | -5 | 3
Cn1nccc1C(=O)Nc1ccc2c(c1)OCO2
  -2 | 15 | 0 | 0 | -3
COC(=O)c1sccc1NC(=O)Nc1ccc(Cl)c(Cl)c1
  -8 | 0 | 2 | -2 | -8
O=C(Nc1ccccn1)C(=O)Nc1ccccn1
  0 | 12 | 0 | -5 | 2
Oc1csc(Cc2nc(-c3ccccc3F)cs2)n1
  -9 | 9 | -14 | 3 | 11

(continued)
Sequence of screens – PfG6PD inh | NLRP3 yeast inh | SENP1 FRET inh | HKDC1 inh | Apaf-1 inh
NC(=O)c1ccsc1NC(=O)COc1ccccc1
  20 | 8 | -15 | -2 | -2
Cc1nc(-c2ccc(NC(=O)c3ccc(Br)o3)cc2)cs1
  17 | 38 | 0 | 1 | 4
Cc1ccc(NC(=O)c2cnc(SCC(=O)c3ccccc3)n(C)c2=O)cc1
  -5 | 7 | -42 | 9 | 8
COc1ccc(CNc2cc(NCCCO)c([N+](=O)[O-])c3nonc23)cc1
  14 | 2 | -20 | 18 | 8
Cc1ccc(C(=O)Nc2sc3c(c2C(=O)O)CCC(C)C3)o1 (centres undefined)
  26 | -20 | 1 | 1 | 2
COC(=O)c1sccc1NC(=O)Nc1ccc(C(C)=O)cc1
  36 | 11 | 1 | -1 | -7
C/C(=N\Nc1ccc(S(=O)(=O)N2CCOCC2)cc1[N+](=O)[O-])C(C)C
  0 | 11 | 3 | 6 | 3
O=C(O)c1cccc(NC(=S)NC(=O)c2ccc(-c3ccccc3)cc2)c1
  10 | 11 | 1 | 14 | 13
Cc1nc(-c2ccc(Cl)cc2)sc1C1(C)CC(c2ccccc2)=NO1 (centres undefined)
  11 | 8 | 2 | 1 | 12
O=C(COc1ccccc1)Nc1cccc(-c2nc3ccccc3[nH]2)c1
  8 | 1 | 0 | 5 | 17
COc1ccc(OCC(=O)Nc2ccccc2O)cc1
  2 | 30 | 2 | -11 | 10

A draw from above in order of molecular weight, ascending.
Sequence of screens – PfG6PD inh | NLRP3 yeast inh | SENP1 FRET inh | HKDC1 inh | Apaf-1 inh
Cc1ccc(C(=O)Nc2sc3c(c2C(=O)O)CCC(C)C3)o1 (centres undefined)
  26 | -20 | 1 | 1 | 2
O=C(COc1ccccc1)Nc1cccc(-c2nc3ccccc3[nH]2)c1
  8 | 1 | 0 | 5 | 17
Cc1nc(-c2ccc(Cl)cc2)sc1C1(C)CC(c2ccccc2)=NO1 (centres undefined)
  11 | 8 | 2 | 1 | 12
